Screening data from PubChem.
N370S GC mod – inhibits or activates N370S mutant glucocerebrosidase. P04062. N370S GC spleen homogenate, 4MU-glucoside fluorescence. Potency, µM (series often up to 59.4 µM), for the others: top-dose activity change, negative = inhibition, most hits filed as inhibitors. 330,000 compounds, 0.092% hits;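 also: 0% = full enzyme activity and -100% = no enzyme basal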
TDP1 inh – inhibitors of human tyrosyl-DNA phosphodiesterase TDP1; Potency, µM (highest dose often 130 µM), without a hit: at the top dose activity change, negative = inhibition, actives largely listed as inhibitors; recombinant TDP1, AlphaScreen DNA substrate cleavage; 350,000 compounds, 0.28% hits; Q9NUW8; also: nearly all actives have a fitted effect of over 40% in size
Target sequence (Q9NUW8 whole entry, looked up): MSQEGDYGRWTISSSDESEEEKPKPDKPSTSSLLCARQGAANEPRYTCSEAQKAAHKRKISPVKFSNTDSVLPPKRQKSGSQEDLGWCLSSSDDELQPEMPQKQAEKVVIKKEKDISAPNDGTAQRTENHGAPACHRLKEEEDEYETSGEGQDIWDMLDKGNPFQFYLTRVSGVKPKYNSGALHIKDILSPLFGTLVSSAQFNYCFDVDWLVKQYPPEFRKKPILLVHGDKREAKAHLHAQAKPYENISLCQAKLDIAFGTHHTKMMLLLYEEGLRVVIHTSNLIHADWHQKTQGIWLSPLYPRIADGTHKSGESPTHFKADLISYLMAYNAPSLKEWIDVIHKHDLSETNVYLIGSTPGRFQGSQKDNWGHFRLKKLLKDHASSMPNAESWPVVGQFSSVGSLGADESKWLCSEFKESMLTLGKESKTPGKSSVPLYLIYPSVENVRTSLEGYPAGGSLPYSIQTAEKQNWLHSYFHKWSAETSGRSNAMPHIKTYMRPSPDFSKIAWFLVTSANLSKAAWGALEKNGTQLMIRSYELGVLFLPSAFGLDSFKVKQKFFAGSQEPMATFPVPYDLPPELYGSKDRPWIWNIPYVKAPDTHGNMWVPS
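Here, a 5' biotin and 3' phosphotyrosine-FITC DNA oligonucleotide reports Tdp1 activity: intact substrate bridges AlphaScreen beads, while cleavage leaves a 3' phosphate and drops signal. All incubations at room temperature.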
* = called active by the depositor; u = inconclusive; x = no result given; & = joins results of further samples; [ ] = dose if it differs, or a comment. Calls follow the shape of the dose curve; as a rule, active = well fitted curve in the direction sought with a large enough effect; inconclusive = small, poorly fitted or top-dose-only effect, or another doubt; inactive = no such curve, though single readings can be large; an effect the other way counts as inactive or inconclusive. Unless noted, % is scaled to controls: 0 for no effect and ±100 for the full control effect; potency is read from the fitted curve at half-maximal effect.

SMILES | N370S GC mod | TDP1 inh
CC1=C(C)CC(C(=O)Nc2cccc([N+](=O)[O-])c2)C(C(=O)O)C1 (centres undefined) | 3.2% | 3.4%
CCN1C(=NCc2ccc(OC)cc2)N[C@@H](c2ccccc2)C(C(=O)OC)=C1C | 3.2%&-7.8% | x
CS(=O)(=O)c1ccc(C(=O)NCC2(N3CCCCC3)CCCCC2)cc1 | -3.8% | 5.6%
COC(=O)c1ccc(-n2nnnc2SCc2ccccc2OC)cc1 | -17.9% | -3.9%
CCOc1ccc(/C=N/NC(=O)c2ccccc2O)cc1CN1CC2CC(C1)c1cccc(=O)n1C2 (centres undefined) | x | 3.4%
CON1C(=O)C(=O)N(OC)C(C)(C)C1C (centres undefined) | 5.7% | 5.9%
COc1cc(/C=C2\SC(=S)N(N(C)c3ccccc3)C2=O)ccc1O | 1.6% | 8.2%
CC1(C)CC(NC(=O)c2coc(=O)c(Br)c2)CC(C)(C)N1 | 24.3%[2.35 µM] | -4.0%
COc1ccc(S(=O)(=O)Nc2ccc(OCC(=O)O)cc2)c2ccccc12 | 2.6% | x
CCC(=O)N1CCN(c2ccccc2NC(=S)NC(=O)c2cccc([N+](=O)[O-])c2)CC1 | 1.0% | 11.0%
CC(=O)Oc1cccc(C(=O)Nc2c[nH]c(=O)[nH]c2=O)c1 | 3.9% | -2.5%
CC(C)c1noc2ncc(C(=O)c3cc(Cl)cc(Cl)c3O)cc12 | -5.9% | 7.1%
O=C(COC(=O)c1ccco1)NC1CCCC1 | 3.1% | 2.5%
COc1ccc(Cl)cc1N(CC(=O)N1CCCC1)S(=O)(=O)c1ccc(C)cc1 | 8.5% | x
C/C(=N\NC(=O)COc1cc(C)cc(C)c1)c1ccc(N2CCOCC2)cc1 | -10.9% | 0.0%
Cc1cccc(-n2ncc3c2CCCC3NC(=O)CCCN2CCCCC2=O)c1C (centres undefined) | -3.1% | 1.2%
CC(=O)c1ccc(NC(=O)CSc2nnc(-c3ccco3)o2)cc1 | -2.4% | x
CC(C)C(c1nnnn1CC1CCCO1)N1CCN(C2CCCC2)CC1 (centres undefined) | -9.4% | 0.0%
COCCCNC(=O)C1CCC(Cn2c(=O)c3sccc3n(Cc3ccc(F)cc3)c2=O)CC1 (centres undefined) | x | 5.8%
C/C(CC(=O)Nc1cccc(F)c1)=N\NC(=O)c1ccncc1 | -4.6% | 0.1%
Cc1cc(C)c(C)c(S(=O)(=O)N2CCNCC2)c1C | 8.5% | 5.3%
CCOC(=O)C1CCN(C(=O)c2ccccc2NC(=O)c2ccc(Br)cc2)CC1 | 2.3% | 1.1%
Cc1ccc(S(=O)(=O)CCc2nc3ccccc3n2CCC#N)cc1 | 2.7% | 6.8%
COc1ccc(NC(=O)c2sccc2C)c([N+](=O)[O-])c1 | 6.4% | 5.3%
Cc1nn(-c2ccccc2)c(Cl)c1C(=O)OCC(=O)N(C)c1c(N)n(Cc2ccccc2)c(=O)[nH]c1=O | -2.3% | x
CCCc1nnc(SCC(=O)N2C(C)CCCC2C)n1CC1CCCO1 (centres undefined) | 8.1% | 3.1%
Cn1cnnc1SCC(=O)OCN1C(=O)c2ccccc2C1=O | -6.9% | 0.0%
CCn1cc(/C=N/NC(=O)c2ccc(C#N)cc2F)c2ccccc21 | 4.5% | 8.5%
CC(O/N=C\c1ccccc1O)C(=O)Nc1ccccc1C(=O)N1CCOCC1 (centres undefined) | 0.4% | -2.7%
CCC(C)n1cnc2c(=O)oc3ccccc3c21 (centres undefined) | 0.8% | 3.3%
O=C(O)C1OC(C(=O)O)C2C1C(F)(F)C2(F)F (centres undefined) | -1.7% | 1.0%
N/C(=N\OC(=O)/C=C/c1ccccc1)c1ccc(Cl)cc1 | 13.4% | 5.1%
OCC[C@H]1C[C@@H](O)[C@H](O)[C@]2(Cc3ccccc3CCO2)O1 | -10.4% | x
CCCN1CCc2nc(SCC(=O)Nc3ccc(C)c(Cl)c3)[nH]c(=O)c2C1 | -2.4% | 11.4%
CC(C(=O)NN)n1nnc(N2CCOCC2)n1 (centres undefined) | -1.1% | 6.2%
CCOC(=O)C1(Cc2ccccc2)CCCN(CCO)C1 (centres undefined) | -1.4% | 0.0%
COc1cccc(/C=N\NC(=O)c2cc(OCC(F)(F)F)ccc2OCC(F)(F)F)c1 | 12.9% | 0.0%
Cc1ccc(CN2C(=O)CCC2C(=O)NCCCN2CCCC(C)C2)cc1 (centres undefined) | 2.3% | 3.1%
CCOC(=O)CSc1nnc(NCC(=O)OC)c(=O)[nH]1 | 19.6% | 3.9%
CCOC(=O)C(CC)(CC)C(=O)/C=C/c1ccc(Br)cc1 | 17.2% | 0.0%
CC(C)c1ccc(C(O)c2nc3ccccc3n2C)cc1 (centres undefined) | -7.8% | -0.1%
OC1CCN(c2ncnc3nc[nH]c23)CC1 | -4.9% | 2.6%
CC(C)(C)c1ccc(CNc2cc(N3CCOCC3)ccc2[N+](=O)[O-])cc1 | -8.6% | 7.3%
CC1=C(C(=O)Nc2ccccc2)C(c2cccc([N+](=O)[O-])c2)Nc2nc3ccccc3n21 (centres undefined) | 3.9% | -2.6%
CC1=C(c2ccc(F)cc2)S(=O)(=O)N=C1N1CCC(C(=O)NCCc2ccccc2)CC1 | x | -3.2%
CC1CCCCN1CCNC(=O)c1ccc2c(c1)N(Cc1ccccc1)C(=O)c1ccccc1S2(=O)=O (centres undefined) | -10.0% | 2.8%
Clc1ccccc1OCCCn1ccnc1 | -12.9% | x
Cn1nc(C(C)(C)C)c(NC(=O)c2cccs2)c1C(C)(C)C | 4.3% | 0.0%
O=C1C2=C(Nc3ccccc3SC2c2ccco2)c2ccccc21 (centres undefined) | -2.4% | 11.4%
COc1cc(OC)c(C(=O)/C=C/c2ccccc2)c(O)c1O | 13.7% | x
O=C(Nc1cccc(F)c1)c1cc(S(=O)(=O)NCCC2=CCCCC2)ccc1F | -7.8% | 4.2%
CC1(C)OC(=O)C(=CNCCc2ccc(O)cc2)C(=O)O1 | -6.8% | -5.4%
CC(=O)c1cccc(NC(=O)Cc2coc3cc4c(cc23)CCC4)c1 | 14.4% | -2.7%
COc1cc2ccccc2cc1C(=O)NC(=S)Nc1cc(C(=O)O)ccc1C | 2.0% | 1.2%
CC(=O)Nc1ccc(NC(=O)COC(=O)[C@@H]2CCCN2C(=O)c2cccs2)cc1 | x | 0.8%
Cn1nc([N+](=O)[O-])nc1N1CCN(c2ccc(F)cc2)CC1 | 0.4% | 5.1%
Cc1ccc(NS(=O)(=O)c2cc(C(=O)N3CCOCC3)ccc2C)cc1 | 1.7% | 3.1%
COC(=O)c1cc(OC)c(OC)cc1-n1cnc2cc(OC)c(OC)cc2c1=O | u | 5.1%
CC1CCc2nn(CC(=O)N3CCCCCC3)cc2C1 (centres undefined) | 6.5% | 4.3%
COCCNC(=O)c1sc2ncn(CC(=O)N3CCCCC3)c(=O)c2c1C | -20.3% | 1.1%

Next section:
SMILES | N370S GC mod | TDP1 inh
CCN1CCN(C(=O)CS(=O)(=O)Cc2nc(-c3ccccc3C)oc2C)CC1 | -2.6% | 1.2%
O=C(NCC(=O)N1CCCCCCC1)c1ccc(Br)o1 | -2.0% | x
O=S(=O)(O/N=C1\CCCc2ccccc21)c1ccccc1 | x | -5.9%
CCCOc1ccc(C2C(=O)N(C3CCCCC3)CC(=O)N2CCC)cc1OC (centres undefined) | -10.8% | 1.0%
CCOc1ccc(CN2CCN(CCCn3cccn3)CC2CCO)cc1 (centres undefined) | -8.5% | 6.0%
CC(C)OC(=O)c1c(NS(=O)(=O)c2ccccc2)sc2c1CCCC2 | 3.9% | 1.0%[56.1 µM]
Cc1nnc(SCC(=O)N2CCN(C(=O)c3ccco3)CC2)n1C | x | 0.9%
CCN(CC)CCN(Cc1cc2cc3c(cc2[nH]c1=O)OCO3)C(=S)NCc1ccco1 | 20.5% | -7.7%
O=C(CNC(=O)c1cccc(-n2cnnn2)c1)Nc1ccc(F)c(F)c1 | x | 1.7%
COc1ccc(OC)c(/C=N\NC(=O)c2ccc(-c3ccccc3)cc2)c1 | 9.4% | 0.9%
CC(C)CNC(=O)CCCc1ccccc1 | x | 2.8%
OCCC1CN(Cc2ccc(F)cc2)CCN1CCc1ccccc1 (centres undefined) | 2.1% | x
COC(=O)[C@@H](NC(=O)NCc1cccc(OC)c1)C(C)C | u | 0.0%
COc1cc(NC(=O)c2cc3ccccc3cc2OC)ccc1NC(=O)c1cccs1 | 28.8% | 0.2%
Cn1c(=O)c2c(nc3n2CC(COc2ccccc2)O3)n(C)c1=O (centres undefined) | 0.4% | x

Retrieved by structure from the list above:
SMILES | N370S GC mod | TDP1 inh
CC(C)CNC(=O)CCCc1ccccc1 | x | 2.8%
O=S(=O)(O/N=C1\CCCc2ccccc21)c1ccccc1 | x | -5.9%
Cn1c(=O)c2c(nc3n2CC(COc2ccccc2)O3)n(C)c1=O (centres undefined) | 0.4% | x
O=C(CNC(=O)c1cccc(-n2cnnn2)c1)Nc1ccc(F)c(F)c1 | x | 1.7%
CC(C)OC(=O)c1c(NS(=O)(=O)c2ccccc2)sc2c1CCCC2 | 3.9% | 1.0%[56.1 µM]
O=C(NCC(=O)N1CCCCCCC1)c1ccc(Br)o1 | -2.0% | x

Further records.
SMILES | N370S GC mod | TDP1 inh
Cc1ccc(-n2nc3c(c2NC(=O)c2ccc4c(c2)OCO4)CS(=O)C3)c(C)c1 (centres undefined) | -0.4% | x
O=C(/C=C/c1cccc([N+](=O)[O-])c1)OCC(=O)N1CCN(C(=O)c2ccco2)CC1 | x | 0.9%
COc1ccc(-n2ncc3c2CC(C)(C)CC3NC(=O)CCc2c(C)noc2C)cc1 (centres undefined) | -6.9% | 4.8%
CC(=O)c1cccc(NC(=O)CCNC(=O)c2cccc(C)c2)c1 | -4.4% | 19.7%
CC1CCCC(C)N1C(=O)COC(=O)c1ccc(F)c(S(=O)(=O)N2CCOCC2)c1 (centres undefined) | -0.9% | 1.7%
COc1ccc(NC(=O)COC(=O)CNC(=O)COc2ccccc2)cc1OC | -14.1% | -14.8%
Cc1ccc(S(=O)(=O)Nc2ccc(Cl)cc2C(=O)c2ccccc2)cc1 | 7.9% | 0.6%
CCOc1ccc(CCNC(=O)c2ccc(CS(=O)Cc3ccc(Cl)cc3)o2)cc1OCC (centres undefined) | -5.5% | 2.8%
Cc1ccc(-c2nc(=S)c3c(n2CCN2CCOCC2)CC(C)(C)OC3)cc1 | 2.4% | 2.3%
CC(=O)C1=C(C)NC(SCC(=O)c2ccc(Cl)cc2)=C(C#N)C1CC(C)C (centres undefined) | 13.0% | 5.1%
CCC(=O)Nc1cc(-c2cc3ccccc3oc2=O)ccc1OC | 5.5% | u
O=C(CSc1nnc(-c2ccc(O)cc2)o1)Nc1cccc(O)c1 | 7.2% | 14.1%
CCOC(=O)Oc1ccc(/C=C2\N=C(C)OC2=O)cc1 | -7.7% | x
O=C(NCCCN1CCCC1=O)c1cccs1 | -3.1% | 4.7%
COc1ccc(OC)c(CN2CCN(C(=O)CCNC(=O)c3ccc(Br)cc3)CC2)c1 | -13.4% | 0.3%
CCn1cc(S(=O)(=O)CC(=O)Nc2ccc3c(c2)OCO3)c2ccccc21 | -0.1% | x
COc1ccc(CCN(Cc2cc3cccc(C)c3[nH]c2=O)C(=O)N2CCCC2)cc1OC | 2.9% | 0.0%
Cc1ccc(OCc2ccc(C(=O)Nc3nccs3)o2)cc1C | -24.4% | 5.8%
Cc1ccc(S(=O)(=O)NCC(c2cccnc2)N2CCN(Cc3ccccc3)CC2)cc1 (centres undefined) | 1.4% | 6.0%
Nc1ccc(S(=O)(=O)NC2(C(F)(F)F)NC(=O)N(c3ccc(F)cc3)C2=O)cc1 (centres undefined) | -12.5% | x
Cc1cccc(N(CC(=O)NC(C)(C)C)C(=O)CS(=O)CC(=O)Nc2ccc3c(c2)OCO3)c1 (centres undefined) | 7.0% | 2.4%
CNc1nc(NN)nc(Nc2ccccc2)n1 | -8.9% | x
CCOc1ccccc1Oc1coc2cc(OCC(=O)O)ccc2c1=O | -3.8% | x
NS(=O)(=O)c1ccc(-n2nncc2-c2ccco2)cc1 | -12.5% | -7.1%
O=C1C2CC=C(Cl)CC2C(=O)N1CN(Cc1ccco1)CN1C(=O)C2CC=C(Cl)CC2C1=O (centres undefined) | 2.2% | x
Cc1nc(SCC(=O)Nc2ccccc2Cl)oc1C | -11.0% | 3.6%
CCOc1ccc2nc(N3CCOCC3)nc(C)c2c1 | 21.4% | 0.0%
Cc1cc(C(=O)N2CCCC2C(=O)O)c(C)o1 (centres undefined) | -27.6% | 1.9%
CCOc1ccccc1-n1c(SCC(=O)NC)nnc1-c1ccco1 | -24.7% | -1.9%
COc1ccc([N+](=O)[O-])cc1NC(=O)C1(c2ccccc2)CCOCC1 | 7.4% | -5.3%
Cc1nc2ccccc2n1CC(=O)N1CC(=O)Nc2ccccc21 | 8.4% | 2.3%
COc1ccc(NC(=O)c2ccc(-n3cccn3)nc2)c(OC)c1 | 4.2% | 3.4%
Cc1occc1C(=O)Nc1ccc(S(N)(=O)=O)cc1 | 5.1% | -4.7%
CN(Cc1ccccc1)C(=O)N1CCOCC1 | -16.5% | -3.5%
O=C(N/N=C/c1ccccc1C(=O)O)C(=O)N1CCCCC1 | -10.7% | 4.8%
COCCNC(=O)c1ccc(CSc2nc3ccccc3s2)cc1 | 1.6% | 2.2%
O=c1oc(-c2ccccc2NS(=O)(=O)c2ccc3ccccc3c2)nc2ccccc12 | 9.8% | -4.2%

These rows are one share of the data; most or all hits stand in other tables.
